Bioassay records from PubChem BioAssay.
UCH37 DUB inh: inhibitors of human deubiquitinating enzyme UCH37 | hit rate 0.33% among 330,000 | purified proteasome/UCH37, Ub-AMC cleavage fluorescence | inhibition, % (no concentration beside the values) | Q9Y5K5;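 active means mean of two replicates above 20%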;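 further: 0% = compound-free wells with enzyme and 100% = wells lacking proteasome; stock transfer was 100 nL into about 20 µL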
Target sequence (Q9Y5K5 whole entry, looked up): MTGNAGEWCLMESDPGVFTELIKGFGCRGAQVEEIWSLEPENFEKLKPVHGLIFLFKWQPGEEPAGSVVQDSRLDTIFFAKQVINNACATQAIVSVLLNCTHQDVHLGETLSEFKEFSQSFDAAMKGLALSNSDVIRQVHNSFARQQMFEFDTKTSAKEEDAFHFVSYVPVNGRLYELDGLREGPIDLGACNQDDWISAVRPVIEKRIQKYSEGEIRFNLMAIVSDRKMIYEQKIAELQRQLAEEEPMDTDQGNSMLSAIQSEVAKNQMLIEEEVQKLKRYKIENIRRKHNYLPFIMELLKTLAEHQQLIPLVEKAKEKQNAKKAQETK
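Test system – human UCH37 enzyme supplied as purified proteasome complex · Incubation – 30 min preincubation with enzyme, 25 min cleavage at room temperature · Detection – AMC fluorescence from Ub-AMC cleavage, excitation 355 nm, emission 460 nm · Benchmarks – no-proteasome wells (full inhibition) and compound-free wells (no inhibition)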
FGF22 binding: FGF22 (human) thermal shift binding. recombinant FGF22 thermal shift, SYPRO orange fluorescence; percent of sucrose octasulfate shift, DMSO zero. AID 651658. Q9HCT0. hit rate 1.5% among 340,000. calls only at 9.99 µM;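 active means melting point raised past a set limit in the mean and every replicate; three in four hits are not shown here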
Target sequence (Q9HCT0 whole entry, looked up): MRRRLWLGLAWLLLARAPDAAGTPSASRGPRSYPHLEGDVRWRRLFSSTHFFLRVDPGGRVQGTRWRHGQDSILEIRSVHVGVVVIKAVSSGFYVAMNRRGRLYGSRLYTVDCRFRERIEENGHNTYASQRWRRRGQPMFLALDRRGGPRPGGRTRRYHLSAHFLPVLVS
Ecoli growth: E. coli growth inhibition; AID 1053175; OD600 absorbance (no concentration beside the values); hit rate 0.21% among 330,000; Escherichia coli growth, OD600, 23 h; active compounds read low;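 active means OD600 absorbance below the run mean of sample wells minus 3.6 SD, in any replicate, cut at about 0.56 in these data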;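 further: stock transfer was 300 nL into about 60 µL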
Ecoli rRNA inh: selective bacterial rRNA inhibition in E. coli; E. coli WT GFP vs humanized-ribosome RFP mutants, fluorescence, 24 h; active compounds read low; DMSO median 0, no signal -100; GFP signal change (wild-type ribosome), % (no concentration beside the values); hit rate 1.6% among 350,000;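 active means significant combined selectivity score with lowered wild-type GFP, culture density cut under 30%, mutant RFP and density less affected; inactive means any of these conditions unmet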; further: one replicate is shown; some compounds called inactive have numbers as strong as hits
T cruzi repl: blocks replication of Trypanosoma cruzi; T. cruzi beta-gal in NIH3T3, luminescence, 90 h; inhibition, % (concentration not given with the values); hit rate 1.4% among 300,000; AID 1885;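 active means mean inhibition across valid replicates above about 55%, limit read from the data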;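 further: signal also drops with host cell toxicity which is not excluded here; 0% = plate median of DMSO wells and 100% = zero luminescence signal; higher percent means less beta-gal luminescence so fewer parasites; stock transfer was 50 nL into about 50 µL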
A1 inh: inhibitors of the anti-apoptotic protein A1, read as caspase activation; MEF A1-2A-BIM cells, Caspase-Glo 3/7 luminescence, 3 h; percent of clofoctol response, vehicle zero; caspase activation, % (no concentration beside the values); hit rate 0.066% among 330,000; AID 2462;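 active means over half of replicate activation scores above 10%, or exactly half above 10 with the replicate mean above 10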;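 further: wells of about 30 µL received 50 nL stock; many hits fall short of the cut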
Beta cell apopt: beta cell apoptosis inhibition; hit rate 0.8% among 300,000; protection from apoptosis, % (no concentration beside the values); INS-1E cytokine-induced death, ATP luminescence, 48 h; percent of positive-control rescue, neutral wells zero;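 active means all replicates at 75% or more, or half of them and the mean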;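 further: 0% = cytokine-treated negative control wells and 100% = positive control rescue; higher means more ATP so stronger rescue from cytokine killing; wells of about 40 µL received 100 nL stock; the first replicate is given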
AF4-AF9 inh: inhibitors of human MLL-AF4/AF9 interaction; P42568; AID 651704; AlphaScreen, biotin-AF4 peptide binding to FLAG-AF9; hit rate 0.47% among 350,000; inhibition, % at 10 µM;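 active means every replicate reaching a set inhibition limit, whatever the replicate mean, cut at about 25% in these data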;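 further: 0% = plate neutral control median and 100% = total signal loss; the record names both 10 and 1 µM as test concentration; the first replicate is given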
Target sequence (P42568 whole entry, looked up): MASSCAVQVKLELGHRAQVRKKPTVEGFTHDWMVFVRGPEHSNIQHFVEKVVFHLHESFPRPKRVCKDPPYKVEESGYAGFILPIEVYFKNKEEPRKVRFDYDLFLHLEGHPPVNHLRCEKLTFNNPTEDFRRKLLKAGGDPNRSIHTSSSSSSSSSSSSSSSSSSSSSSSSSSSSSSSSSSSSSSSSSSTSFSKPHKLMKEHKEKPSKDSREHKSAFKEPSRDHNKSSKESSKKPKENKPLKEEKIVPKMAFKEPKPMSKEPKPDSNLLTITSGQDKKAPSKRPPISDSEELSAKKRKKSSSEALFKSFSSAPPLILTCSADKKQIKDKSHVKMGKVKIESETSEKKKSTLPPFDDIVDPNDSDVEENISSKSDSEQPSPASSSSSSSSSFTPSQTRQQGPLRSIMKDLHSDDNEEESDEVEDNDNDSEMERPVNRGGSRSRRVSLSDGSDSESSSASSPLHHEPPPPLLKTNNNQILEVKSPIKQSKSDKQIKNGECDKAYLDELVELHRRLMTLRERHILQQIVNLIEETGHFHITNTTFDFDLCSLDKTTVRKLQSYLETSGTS
Ecoli rRNA inh OD600: second read-out of Ecoli rRNA inh, no call of its own (marks repeat the call); OD600 change, %; measured here: OD600 growth;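 optical density of the mix in the first replicate; 0 = DMSO median and -100 = no signal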
Ecoli rRNA inh RFP: second read-out of Ecoli rRNA inh, no call of its own (marks repeat the call); RFP signal change, %; measured here: RFP humanized mutant strains;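 first replicate; 0 = DMSO median and -100 = no signal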
* hit, by the source's call; i = inactive; / = no result given; & = joins results of further samples. Not all compounds are listed; the hit share may differ from the screen's.

SMILES	UCH37 DUB inh	FGF22 binding	Ecoli growth	Ecoli rRNA inh	Ecoli rRNA inh OD600	Ecoli rRNA inh RFP	T cruzi repl	A1 inh	Beta cell apopt	AF4-AF9 inh
COc1cc(C(c2nnnn2C2CCCC2)N2CCN(C(=O)c3ccco3)CC2)cc(OC)c1OC (stereo not given)	2.1	i	0.68	-2	3	-1.9	-7	0.6	7	9.8
CSCC[C@H](NC(=O)CC(C)(C)C)c1nc2ccccc2[nH]1	1.3	/	0.62	/	/	/	8	0.2	-10	/
Cc1ccc(S(=O)(=O)CCC#N)cc1	2.5	i	0.68	8	-2	-4.1	-6	0.0	-1	7.0
Cc1cccn(Cc2c(Cl)cccc2Cl)c1=O	1.4	i	0.6	7	6	1.3	-13	0.6	/	3.6
CCN(CC)c1ccc2cc(C(N)=O)c(=N)oc2c1	-49	i	0.68	8	-3	19	5	1.3	-4	-6.4
COc1ccc(C(=O)/C=C/c2ccc(-c3ccccc3)cc2)cc1CSCC(=O)O	/	i	/	-46	-74	-8.7	-21	-1.4	-2	5.2
N#CC1=C(N)Oc2n[nH]c(-c3cccs3)c2C1c1ccncc1 (stereo not given)	-0.3	i	0.69	1	-15	-2.0	-9	0.7	-3	-1.3
Cc1cccc(NS(=O)(=O)c2cccc(C(=O)N3CCCC(C(F)(F)F)C3)c2)c1 (stereo not given)	2.9	i	0.69	1	5	-0.1	27	0.6	-9	8.8
O=C(Nc1ccccc1)c1ccc(S(=O)(=O)N2CCOCC2)cc1	2.0	/	0.72	/	/	/	4	0.7	0	/
CC1(C)CNC(=O)CC(C)(C)N1O	0.4	/	0.65	/	/	/	-6	0.4	0	/
Cc1nc2cc3sc(C)nc3cc2s1	0.3	i	0.67	11	1	-13	-25	-1.4	-3	-1.5
CN1CCN(Cc2nc3ccccc3c(=O)n2Cc2nc(-c3ccc4ccccc4c3)cs2)CC1	6.8&4.6	i	0.65&0.65	-55	-78	-16	29	1.5	-3	1.0&13
COc1ccccc1NC(=O)c1cc2c(=O)n(C)c3ccccc3c2n1C	-126	i	0.65	8	8	-0.5	2	-0.2	0	-2.5
COc1ccc(C2/C(=C(\O)c3ccc4c(c3)OCCO4)C(=O)C(=O)N2c2nc(C)c(C(C)=O)s2)cc1 (stereo not given)	/	i	/	-4	1	-2.0	-9	0.1	3	6.8
Cc1ccsc1/C=N/NC(=O)c1ccc2c(c1)OCCO2	/	i	/	-2	-2	-2.7	-15	-5.7	/	-0.3
CC1(C)C(C=C(Cl)Cl)C1C(=O)N(Cc1ccccc1Cl)C1CCS(=O)(=O)C1 (stereo not given)	1.3	i	0.69	-17	-17	8.8	4	1.3	-7	5.0
O=C(Cn1nnc2ccccc21)OCC(=O)c1ccccc1	1.3	/	0.68	/	/	/	-2	-0.8	-6	/
Cc1cc(SCCOc2ccc(Br)cc2)nc(N)n1	4.7	/	0.74	/	/	/	-8	-1.0	-13	/
O=C(O)COc1ccccc1C=NNC(=O)c1ccccc1NS(=O)(=O)c1cccs1	14	/	0.71	1	4	7.3	/	1.6	-6	-4.2
Nc1cc2c(cc1Cl)-c1ccc(Cl)cc1C2=O	0.9	i	0.66	11	16	2.5	/	/	/	8.4
CC(NC(=O)c1ccc(Cl)cc1Cl)C(c1ccccc1)N1CCOCC1 (stereo not given)	0.8	i	0.66	1	1	0.5	2	0.1	2	-2.3
Cc1ccc(-c2cc(C(=O)NCCCN3CCOCC3)c3ccc(Cl)c(C)c3n2)cc1	-15	i	0.71	18	17	4.5	40	-0.6	33	-0.6
CCN(CC)S(=O)(=O)c1cccc(C(=O)N2CC(O)CC2C(=O)OC)c1 (stereo not given)	1.5	/	0.7	/	/	/	-11	0.4	/	/
O=C(CSc1nnc(-c2cccs2)n1-c1ccccc1)NCc1ccc2c(c1)OCO2	0.7	/	0.72	/	/	/	-3	0.8	3	/
Cc1nc2ccccc2n1CC(O)c1ccccc1 (stereo not given)	0.9	i	0.65	0	2	-1.1	-6	0.0	-4	-5.8
COc1ccc(C(CCNCc2ccc(OC(C)C)cc2)c2ccccc2OC)cc1 (stereo not given)	0.7	i	0.63	-56	-79	-17	52	-2.2	76*	9.5
CCOc1ccc(Cl)cc1S(=O)(=O)N1CCN(c2ccc(F)cc2)CC1	-0.8	/	0.69	/	/	/	23	2.0	3	/
Cc1ccc(S(=O)(=O)c2nc(-c3ccccc3)oc2SCC(=O)NCC2CCCO2)cc1 (stereo not given)	3.3	i	0.68	5	5	-2.4	4	0.7	1	11
Cc1ccc(CNC(=O)C(Cc2ccccc2)n2cccc2)cc1 (stereo not given)	0.9	i	0.68	-10	-7	-5.2	-5	0.7	-5	8.8
Nc1nc(-c2ccccc2)[nH]c(=O)c1N	-39	i	0.67	0	11	6.9	-7	-0.3	-4	5.2
COc1ccc(C(=O)NCCN=C2NS(=O)(=O)c3ccccc32)cc1	-4.3	i	0.69	0	5	0.1	-8	0.3	-3	1.8
COC(=O)NNC(=O)C(C)Oc1ccc(Cl)cc1Cl (stereo not given)	2.7	i	0.68	1	-3	-1.2	-6	-0.5	-9	-42
CCN(CC)S(=O)(=O)c1ccc2nc(CSc3nnnn3-c3ccc(O)cc3)[nH]c2c1	1.5	/	0.75	/	/	/	6	0.8	-4	/
Oc1cc(OCc2ccccc2)ccc1-c1[nH]ncc1-c1ccccc1	6.4	i	0.73	-57	-80	-27	1	0.8	5	-45
CCOC(=O)C1=C(CSc2nc(CC)c(C)cc2C#N)OC(N)=C(C#N)C1c1ccc(OC)cc1 (stereo not given)	-7.3	/	0.74	/	/	/	-4	0.3	-3	/
COc1cc(Nc2nc3ccc(Cl)cc3n3cnnc23)cc(OC)c1OC	-113	i	0.64	2	5	-1.1	4	0.3	0	4.4
Cc1ccc2c(c1)CCCN2C(=O)c1ccncc1	2.1	i	0.72	8	1	-6.5	2	0.6	-5	7.9
Fc1ccc(CN2CCN(c3ncccn3)CC2)cc1	1.5	/	0.69	/	/	/	-4	0.0	0	/
COc1ccc(NC(=O)CCn2c(=O)c3cccn3c3ccccc32)cc1	0.2	i	0.64	-2	0	-2.2	19	0.1	4	-2.7
Cc1noc(C)c1C(=O)Nc1ccccc1-c1ccccc1	0.9	/	0.69	/	/	/	-19	1.2	-5	/
Cc1ccc(S(=O)(=O)CCN2C=CC(C(F)(F)F)=NCC2)cc1	8.3	i	0.65	5	4	-1.9	2	-0.7	-2	1.5
CC1CCCN(c2nc3c(c(=O)[nH]c(=O)n3C)n2CCCc2ccccc2)C1 (stereo not given)	2.6	i	0.74	-14	-25	-4.6	8	-1.2	0	3.0
COc1cccc(/C=N\NC(=O)c2ccc(Cn3cc(Br)c([N+](=O)[O-])n3)o2)c1O	/	i	/	-20	-16	-5.4	64*	-0.3	96*	0.2
CCOC(=O)c1ccc(COC(=O)CNS(=O)(=O)c2ccccc2)cc1	5.8	i	0.69	-4	-7	2.2	-10	-0.1	-11	-2.9
CC(C)CC(=O)Nc1cc2nn(-c3ccccc3)nc2cc1Cl	-65	/	0.71	/	/	/	5	-0.8	-15	/
Cc1ccc(NC(=O)c2ccc(S(=O)(=O)N3CCOCC3)cc2)cc1	1.0	i	0.67	1	2	-4.3	2	0.1	-4	-3.0
O=C(CCN1CCN(C/C=C/c2ccccc2)CC1)Nc1ccccc1F	4.1	i	0.69	-10	-5	7.6	52	-0.7	/	-4.6
CCn1c(SCc2cccc(OC)c2)nc2ccccc2c1=O	1.4	i	0.69	-8	-12	0.5	27	0.5	4	-1.4
O=C(NCC(c1ccco1)N1CCOCC1)c1c(F)cccc1F (stereo not given)	0.8	i	0.66	12	12	-3.0	-12	0.2	-2	0.3
Cc1onc(-c2ccccc2)c1C(=O)Nc1ccc(N2CCOCC2)cc1	-1.1	/	0.73	/	/	/	-7	-0.2	-1	/
Cc1ccccc1NS(=O)(=O)c1ccc(OCC(=O)N2CCCC2)cc1	4.2	/	0.77	/	/	/	5	1.4	-9	/
CCc1nc(N2CCCC2)c(C#N)c2c1CCCC2	-74	/	0.71	/	/	/	11	0.5	-3	/
Cc1[nH]nc2cn[nH]c12	2.5	/	0.68	/	/	/	14	0.1	-2	/
C=CCSc1nnc2c(n1)OC(c1cccnc1)Nc1ccccc1-2 (stereo not given)	4.8	/	0.74	/	/	/	-2	-0.5	-6	/
CC(NC(=O)C(C)(C)C)c1nc2ccccc2n1C (stereo not given)	-0.6	/	0.71	/	/	/	-13	0.1	-2	/
COc1ccc(NC(=O)NNC(=O)C(O)(c2ccccc2)c2ccccc2)cc1	1.0	i	0.67	-4	1	6.9	-13	-0.4	3	0.0
CN1CCN(CCCNC(=O)CCCOc2cc(=O)n(C)c3ccccc23)CC1	5.8	/	0.7	/	/	/	-21	-0.7	-3	/
O=C1CCCN1CCCNc1ncnc2sccc12	2.9	i	0.7	2	3	-1.1	-6	0.0	-3	-1.9
CC1CCCC(C)N1C(=O)CSc1nnnn1Cc1ccccc1 (stereo not given)	1.1	/	0.74	/	/	/	14	-0.3	4	/
CN(C)S(=O)(=O)Nc1ccc(C(=O)O)cc1	1.7	/	0.75	/	/	/	-6	-0.2	-7	/

Continuation:
SMILES	UCH37 DUB inh	FGF22 binding	Ecoli growth	Ecoli rRNA inh	Ecoli rRNA inh OD600	Ecoli rRNA inh RFP	T cruzi repl	A1 inh	Beta cell apopt	AF4-AF9 inh
Nc1ccc2c(c1)C(=O)c1ccc(Br)cc1-2	3.6	i	0.68	-5	-22	-1.1	/	/	/	3.6
COc1ccc2c(c1)c(C(=O)N/N=C/c1ccc(Cl)cc1)c(C)n2C	/	i	/	6	2	-0.8	17	1.0	/	-2.6
CCCCOCCCn1cnc2c([nH]c3cc(OC)ccc32)c1=O	4.3	/	0.78	/	/	/	-3	0.1	-8	/
COc1cccc(C(=O)Nc2cccc(OCC(=O)c3ccccc3)c2)c1	-0.1	i	0.63	16	19	-1.0	-15	0.2	/	-0.9
CCCCCCCN1N=C(C)C(C(=O)c2ccccc2)C1=O (stereo not given)	6.8	/	0.66	/	/	/	1	0.9	5	/
O=C(NCCCn1ccnc1)c1ccc(Br)c(S(=O)(=O)N2CCOCC2)c1	2.3	/	0.72	/	/	/	-14	-1.1	-4	/
C/C(=C\C(=S)Nc1ccccc1)Nc1ccccc1	4.8	i	0.71	-4	2	-1.3	-3	0.7	1	0.6
COc1ccccc1N1CCN(C(=O)CCc2nnc3ccc(N4CCOCC4)nn23)CC1	1.2	i	0.68	11	19	2.0	-21	0.9	-3	1.7
CC(C)c1ccc(-n2c(-c3ccccc3)c[n+]3c2CCc2ccccc2-3)cc1	7.3	i	0.64	-51	-77	-8.8	67*	/	/	2.5
CN(Cc1c(O)ccc2c1oc(=O)c1ccccc12)C1CCCCC1	-22	/	0.67	/	/	/	2	0.0	-12	/

Just Ecoli rRNA inh, for some of the entries so far:
Molecule	Ecoli rRNA inh
Cc1ccsc1/C=N/NC(=O)c1ccc2c(c1)OCCO2	-2
CC1(C)C(C=C(Cl)Cl)C1C(=O)N(Cc1ccccc1Cl)C1CCS(=O)(=O)C1 (stereo not given)	-17
